Screening data (PubChem BioAssay)
Mtb growth: Mycobacterium tuberculosis H37Rv growth inhibition, cell based, confirmatory dose response (AID 1949); M. tuberculosis H37Rv growth inhibition; most inactive calls were filed without a number and no value below 0 was filed; inhibition, % at 10 µg/mL; hits with a dose series show IC50 in µg/mL; 1.6% of 100,000 active;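 active = confirmed in a dose series; inconclusive = about 50% or more but not retested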;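 note: bacteria grown 7 days with compound before Alamar blue readout; 0% = untreated bacteria and 100% = reference antibiotic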
* = called active by the depositor; i = inactive; u = inconclusive. Some of the compounds tested. The share of hits here may be higher or lower than overall.

Compound,Mtb growth
Cc1ccc(S(=O)(=O)N(CC(=O)NC2CC3CCC2C3)c2cccc(C)c2C)cc1 (stereo unspecified),i
CCc1ccccc1NC(=O)CN(c1cc(Cl)ccc1OC)S(C)(=O)=O,i
Cc1ccc(OCC(=O)Nc2ccc3oc(-c4ccc(F)cc4Cl)nc3c2)cc1,i
Cc1ccc(C(=O)Nc2ccc(C(=O)N3CCCC3)cc2)s1,i
CCc1cccc(C)c1NC(=O)CSc1nnc(-c2ccccc2)n1CC,i
O=Cc1nc2ccccc2n1Cc1ccccc1,11%
CCOCC(=O)Nc1cccc(NC(C)=O)c1,i
COC(=O)COc1ccc(S(=O)(=O)N2CCOCC2)cc1Cl,i
Cc1cccc(C(C)C)c1NC(=O)CN(C1CCCCC1)S(C)(=O)=O,i
COCc1[nH]nc2c1C1(CCSCC1)C(C#N)=C(N)O2,i
O=C(Nc1ccc2nc(-c3ccccc3)[nH]c2c1)c1ccccc1,10%
CCn1c(SCC(=O)Nc2ccc(Br)cc2C(F)(F)F)nnc1-c1ccc(Cl)cc1,i
N/C(=N\OC(=O)c1cc(Br)ccc1Cl)c1cccnc1,u
CCCOc1ccc(-c2csc(NC(=O)CCCCCN3C(=O)c4ccccc4C3=O)n2)cc1,i
COc1ccc(Oc2c(C(F)(F)F)oc3c(CN4CCN(C)CC4)c(O)ccc3c2=O)cc1,2%

Later entries:
Compound,Mtb growth
COc1cc(-c2nnc(SCc3ccc([N+](=O)[O-])cc3)n2C)cc(OC)c1OC,i
CCN(CC)C/C=C/c1c(F)c(F)c(N(C)C)c(F)c1F,i
CN(C)c1ccc(CNn2cnnc2)cc1,3%
CC(=O)Nc1c(O)[nH]c2ccc(C)cc12,i
CCCC(NC(=S)Nc1ccc(OC)cc1OC)C12CC3CC(CC(C3)C1)C2 (stereo unspecified),42%
Cc1cc(=O)[nH]c(-c2ccccc2O)n1,2%
COc1ccc(-c2cc(=O)c3cc(OC(=O)c4ccncc4)ccc3o2)cc1,i
NC1=NC(=Nc2ccc(F)cc2)c2ccccc21,1%
O=C(O)COc1ccc(CS(=O)(=O)Cc2ccc(OCC(=O)O)cc2)cc1,1%
CCc1ccc(S(=O)(=O)Nc2ccc(C(=O)NCc3ccccc3)cc2)cc1,1%
CCC(=O)Oc1ccc(C(=O)NCCc2ccc(OC)c(OC)c2)cc1,3%
COc1ccccc1C1Nc2ccccc2NC2=C1C(=O)CC(c1ccc(Cl)cc1)C2 (stereo unspecified),i
CN(C)C(=O)CSc1nc2ccccc2c(=O)[nH]1,i
COc1cc(F)ccc1S(=O)(=O)n1cnc2ccccc21,4%
O=S(=O)(c1cccc2cccc(Cl)c12)N1CCCC1,i

(continued)
Compound,Mtb growth
O=c1[nH]c2ccc(Cl)cc2c(-c2ccccc2)c1SCCO,i
CCn1c(=O)c([N+](=O)[O-])c(NCCN(C)C)c2ccccc21,i
Cc1ccc(S(=O)(=O)N(CC(=O)Nc2ccccc2Cl)c2cccc(C)c2C)cc1,i
O=C(Cc1cccc2ccccc12)Nc1ccc(Br)cc1,i
CCCn1c2ccccc2c2nnc(SCC(=O)O)nc21,i
Cc1cccc(NC(=O)c2cccc(C(=O)Nc3cccc(C)c3)n2)c1,i
Cc1ccc(NC(=S)NC(=O)C2CCCCC2)cc1Cl,0%
COc1ccc(-c2ccc(S(=O)(=O)NCc3ccco3)cc2)cc1,i
O=C(NC(=S)Nc1cc(Cl)c(O)c(Cl)c1)c1cc2ccccc2o1,5%
Cn1nnc(NC(=O)c2ccc(-c3ccccc3)cc2)n1,i
CC(=O)Nc1nc(-c2ccc(F)cc2)c(C)s1,i
CCn1c(SCC(=O)Nc2cccc(C)c2C)nnc1C(C)NC(=O)c1ccccc1C (stereo unspecified),i
CC(C)c1nccn1S(=O)(=O)c1ccc(I)cc1,5%
CC(=O)NCCCc1nc2ccccc2[nH]1,2%
COc1c(C(=O)NCc2cccnc2)ccc2ccccc12,i

Going on with the list.
Compound,Mtb growth
Cc1cc(C)cc(NS(=O)(=O)N(C)C)c1,i
O=c1c2ccccc2nc(Cc2ccccc2)n1-c1cccc(O)c1,i
CC(=O)Nc1ccc(S(=O)(=O)N2CCN(CCOc3ccc(Cl)cc3)CC2)cc1,i
COc1ccc(NC(=O)C23CCC(C2)C(C)(C)C3=O)cc1 (stereo unspecified),i
CCOc1ccccc1NC(=O)c1c(NC(=O)CNCC2CCCO2)sc2c1CCC2 (stereo unspecified),0%
CC(=O)c1ccccc1OC(=O)CN1C(=O)c2ccccc2C1=O,i
COc1ccc(NC(=O)CSc2ccc(F)cc2)cc1Cl,48%
CCOCC(=O)N(CC)Cc1ccccc1,i
CSc1nc(C)c(C(C)=O)c(-c2ccc(Cl)cc2)c1C#N,i
COc1ccc(CCC(=O)Nc2ccc(C)cc2Br)cc1,0%
O=C(NCc1ccco1)c1c(NC(=O)C2CCCO2)sc2c1CCC2 (stereo unspecified),i
CC1Cc2ccccc2N1C(=O)c1cc(F)cc(F)c1 (stereo unspecified),3%
Cc1ccc(C(=O)Nc2ccc(CN3CCCCC3)cc2)cc1[N+](=O)[O-],i
Cc1noc(C)c1C(=O)Nc1ccc(C(=O)N2CCCCC2)cc1,i
Cc1cccc(C(=O)Nc2ccc(S(=O)(=O)NC(C)(C)C)cc2)c1,7%

(further entries)
Compound,Mtb growth
COc1ccc(-c2c3c(nc4sc(C(=O)c5ccc(OC)c(OC)c5)c(N)c24)CCC3)cc1,u
O=C(Nc1ccc(I)cc1)C1CCCO1 (stereo unspecified),i
C=C(C)c1cccc(C(C)(C)NC(=O)NCc2ccccn2)c1,i
COCc1cc(C)nc2sc(C(=O)Nc3ccccc3)c(N)c12,i
Cc1nc2ccc(I)cc2c(=O)n1-c1ccc(C(=O)O)cc1,i
COC(=O)C1=CN(CC2CCCO2)C=C(C(=O)OC)C1c1ccccc1OC(C)C (stereo unspecified),i
CCOc1ccc(CC(=O)NNC(=O)Nc2cccc(C(F)(F)F)c2)cc1OCC,i
CCOCCCNC(=O)c1cccc(I)c1,0%
CCOC(=O)c1ccc(NC(=S)NNC(=O)C2c3ccccc3Oc3ccccc32)cc1,i
O=C1CC(C(=O)Nc2ccc(Cl)cc2)SC(=Nc2ccccc2)N1 (stereo unspecified),i
Cc1nc(SCC(=O)O)[nH]c(=O)c1CC(C)C,9%
CC(C)C(=O)Nc1scc(-c2ccccc2)c1C(=O)O,5%
COc1cc(CO)cc(Br)c1OCc1cccc(F)c1,2%
CCOC(=O)c1ccc(N2C(=O)CC(SCC(=O)Nc3ccc4ccccc4c3)C2=O)cc1 (stereo unspecified),i
O=C(CCC1CCCCC1)NC1CCCCCCC1,i

The list goes on:
Compound,Mtb growth
COC(=O)c1sc(NC(=O)C(c2ccccc2)c2ccccc2)c(C#N)c1C,i
COc1ccc(CNCCc2ccccc2)c(OC)c1OC,1%
C=CCOc1ccc(CNCc2cccs2)cc1OCC,i
CN(C(=O)N1CCN(c2ccccc2)CC1)c1ccccc1,i
Cc1ccc(C(=O)Nc2ccc(Cl)cc2F)o1,i
CCOC(=O)C1CCN(C(=O)CNS(=O)(=O)c2ccccc2)CC1,i
COc1ccc(OC)c(NC(=O)Nc2cc(C(=O)O)ccc2C)c1,i
Cc1cc(OCCCCn2ccnc2)cc(C(C)C)c1,2µg/mL*
CCSc1nnc(NC(=O)c2cc(OC)cc(OC)c2)s1,i
Cc1ccc(C(=O)Nc2ccc(F)cc2)cc1Br,i
COc1ccccc1NC(=O)C1CC(=O)N(c2cccc(Cl)c2C)C1 (stereo unspecified),i
CCOc1ccccc1N(CC(=O)NCCSCc1c(F)cccc1Cl)S(C)(=O)=O,i
CCOCC(=O)Nc1ccccc1C(F)(F)F,i
COCCN1C(=O)c2ccc(C(=O)O)cc2C1=O,i
O=C1C2C3C=CC(O3)C2C(=O)N1c1ccccc1I (stereo unspecified),7%

Next results.
Compound,Mtb growth
Cc1cn(S(=O)(=O)c2ccc([N+](=O)[O-])c(C)c2C)cn1,i
CCOc1ccc(NC(=O)C(=O)NCCN2CCN(C(=O)c3ccc([N+](=O)[O-])cc3)CC2)cc1,i
CCOc1ccc(CNc2ccc3oc(-c4ccccc4C)nc3c2)cc1,i
Cc1ccc(F)c(N/C=C/C(=O)c2ccc(Br)cc2)c1,i
O=C1c2ccccc2C(=O)N1CCC(O)C[N+](=O)[O-] (stereo unspecified),i
Cc1ccc(C(=O)Nc2ccc(Br)c(C)c2)c(Cl)c1,3%
Cc1ccc(C(C)(C)C)c(OCCOCCNC(C)C)c1,2%
CCOC(=O)c1oc2cc(OC)ccc2c(=O)c1-c1ccc(Br)cc1,6%
CCOc1ccc(C(=O)NC(=S)Nc2ccc3oc(=O)ccc3c2)cc1Br,i
COc1cc(NC(=S)NCc2ccccc2OC)c(OC)cc1Cl,i
O=C(NCCN1CCOCC1)C1CC(=O)N(C2CCCCC2)C1 (stereo unspecified),i
Cn1c(SCc2ccc(Br)cc2)nnc1-c1ccncc1,i
O=C(OCc1ccccc1)c1cccc(-c2nnn(Cc3ccccc3)n2)c1,u
CC(C)c1ccc(OCC(=O)N2CCN(c3ccccc3F)CC2)cc1,i
CCOC(=O)CNC(=S)NCc1ccc(Cl)cc1,i

Four entries from above, with each value named.
O=C(NCCN1CCOCC1)C1CC(=O)N(C2CCCCC2)C1 (stereo unspecified)
- Mtb growth: i

O=C(OCc1ccccc1)c1cccc(-c2nnn(Cc3ccccc3)n2)c1
- Mtb growth: u

CCOc1ccc(C(=O)NC(=S)Nc2ccc3oc(=O)ccc3c2)cc1Br
- Mtb growth: i

CCOc1ccc(CNc2ccc3oc(-c4ccccc4C)nc3c2)cc1
- Mtb growth: i

Next section.
Compound,Mtb growth
COc1cc(NC(=O)COc2ccc(Cl)cc2C)c(C(=O)O)cc1OC,i
Cc1cc(=O)oc2ccc(OCC(=O)Nc3nc(C(C)(C)C)cs3)cc12,2%
CC(Oc1cccc(Cl)c1)C(=O)NCc1ccccn1 (stereo unspecified),i
O=c1c2ccccc2ncn1CCSc1ccc(Cl)cc1,2%
CCOc1ccc(N(CC(=O)Nc2cccc(N(C)S(C)(=O)=O)c2)S(=O)(=O)c2ccc(SC)cc2)cc1,i
Nc1ncnc2c1c(-c1ccccc1)c(-c1ccccc1)n2CC1CCCO1 (stereo unspecified),0%
CCOc1ccc(C(=O)Nc2ccc(C)cc2)cc1OCC,i
CCOc1ccccc1NC(=O)c1cc(Br)ccc1Cl,22%
Cn1c(SCC(=O)c2ccc3c(c2)OCO3)nc2sc3c(c2c1=O)CCCC3,i
COC(=O)c1ccc(NC(=O)CCC(=O)c2ccc(F)cc2)cc1,i
Cc1ncsc1CCSc1nc2ccccc2c(=O)n1-c1ccccc1,i
CCCCn1nnnc1NCc1ccccc1,i
O=C(Oc1cccc(Nc2ncnc3ccc(Br)cc23)c1)c1cccs1,31%
Cc1ccc(Cn2ncc3c(NCCCN4CCOCC4)ncnc32)cc1,i
C=CCn1c(SCC(=O)N2CCC(C)CC2)nc2scc(-c3ccccc3)c2c1=O,3%

Other compounds follow:
Compound,Mtb growth
COc1cc(Cl)c(S(=O)(=O)N2CCN=C2c2ccccc2)cc1Cl,i
CC1=C(C(=O)OCCc2ccccc2)C(c2cccs2)C2=C(CCCC2=O)N1 (stereo unspecified),i
COc1cc(C(=O)N2CCC(C(=O)Nc3ccc(C)cc3C)CC2)cc(OC)c1OC,i
Cc1cccc(OCCCn2cnc3cc(C)c(C)cc32)c1,1.8µg/mL*
Cc1ccc(OCC(=O)NNC(=O)c2ccc(NC(=O)C3CC3)cc2)c(C)c1,i
c1ccc(-c2noc(CCC3CCCC3)n2)cc1,i
Clc1ccccc1-c1nnc2ccc3ccccc3n12,32%
COC(=O)c1ccc(NC(=O)CN2CCC(C)CC2)cc1,i
COc1ccc(C(=O)Nc2sc(C)c(C)c2C(=O)Nc2cccc(OC)c2)cc1,i
C=CCn1c(SCC(=O)NC2CCCCC2C)nnc1-c1ccccc1O (stereo unspecified),i
O=C(Nc1ccc(Cl)cc1C(=O)c1ccccc1)c1ccccc1F,i
O=C(c1cc(-c2cccs2)nc2ccccc12)N1CCCCCC1,i
COc1ccc(NS(=O)(=O)c2ccc(OCC(=O)Nc3c(C)cc(C)cc3C)cc2)cc1,i
C=CCN(CC=C)C(=O)Nc1ccc2c(c1)nnn2C,i
Cc1cc(OCCCN2CCC(C)CC2)ccc1C(C)C,i

Given field by field: 2 of the compounds above.
canonical_smiles: Cc1nc(SCC(=O)O)[nH]c(=O)c1CC(C)C
  Mtb growth = 9%

canonical_smiles: CC(C)C(=O)Nc1scc(-c2ccccc2)c1C(=O)O
  Mtb growth = 5%

(list continues)
Compound,Mtb growth
O=[N+]([O-])c1ccc2c(c1)OC1(CCCCC1)O2,i
COc1ccc(S(=O)(=O)N(CC(N)=O)c2ccccc2)cc1OC,i
CC(C)(C)NC(=O)Cn1nnc(-c2ccccc2F)n1,i
COC(=O)c1ccccc1NC(=S)Nc1ccccc1C1CC1,i
CCOC(=O)c1cccc(Nc2nc(C(=O)OCC)nc3ccccc23)c1,i
Cc1ccc(C)c(Cn2c(CCCO)nc3ccccc32)c1,i
OC1/C(=C/c2c(F)cccc2Cl)N2CCC1CC2 (stereo unspecified),1%
CN(C)C(=S)N(C#N)c1nc(N(C)C)nc(N(C)C)n1,i
C#CCOc1ccc(CNCCc2ccccc2)cc1OCC,0%
CC(=O)Oc1ccc(C(=O)Nc2ccc(CC#N)cc2)cc1,i
COc1cc(C2C3=C(CCCC3=O)N(c3ccc(C)cc3)C3=C2C(=O)CCC3)c(Cl)cc1OCC(=O)O,i
COc1ccc2c(C)c(CC(=O)O)c(=O)oc2c1C,i
O=C(CSc1nc2ccccc2o1)N1CCc2ccccc21,i
